Autofluor counter – counter-screen for toxin protease inhibitors: compound fluorescence. 3.1% of 360,000 active. compound autofluorescence counterscreen, microsphere flow cytometry; stronger effect = higher value. fluorescence intensity (no concentration beside the values). AID 624483;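 active means at least 3 SD above the mean of all compounds, about 16000 in these data; inconclusive means too few beads counted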;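 further: 100 nL of 1 mM stock went into each well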
Mtb hypoxia inh – PubChem AID 1159583. M. tuberculosis hypoxia-regulated fluorescent reporter, fluorescence. 0.1% of 300,000 active. fluorescence inhibition, % (concentration not given with the values);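 active means 35 to 45% if threefold the growth effect, above 45% if 1.5-fold the growth effect; inactive means the rest, general growth blockers included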;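 further: wells of about 50 µL received 100 nL stock; 0% = vehicle wells and 100% = reference inhibitor wells; whole bacteria with a GFP reporter of the hypoxia response; strong numbers were not always called active; many hits fall short of the cut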
Sa RN4220 lethal – growth inhibition of S. aureus RN4220, primary screen, OD600. 16 h. inhibition, % (concentration not given with the values). 0.33% of 330,000 active. AID 1259311, 2017;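 active means z-score of -3 or lower and OD600 up to 0.18 on both plates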;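 further: plate controls were untreated cells for no effect and reference antibiotic for full effect; stock transfer was 100 nL into about 80 µL; one replicate is shown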
ugtP null kill – growth inhibition of ugtP-null S. aureus, primary screen, RN4220 ugtP deletion, OD600. 16 h; some inactives read as strong as hits. growth inhibition, % (concentration not given with the values). 0.54% of 330,000 active;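 active means z-score under -3 and OD600 up to 0.15 on both plates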;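 further: plate controls were untreated wells for no effect and antibiotic for full effect; wells of about 80 µL received 100 nL stock; the first replicate is given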
BJeLR viability – MLPCN primary cell-based screen for lethality selective to Ras in HRASV12 cells. BJeLR (HRASV12) viability, CellTiter-Glo ATP luminescence, 48 h; reference of the scale not given here. inhibition, % (test concentration not listed). 0.17% of 300,000 active. AID 1554, 2009;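 active means replicate mean above 50%; inconclusive means above 50% but judged a plate artefact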;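 further: 50 nL library stock added to about 25 µL; numbers are from one replicate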
PrP UTR inh – inhibition of PrP 5' UTR reporter expression | inhibition, % (test concentration not listed) | cell-based PrP 5' UTR mRNA reporter, plate reader | 0.35% of 340,000 active;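 active means every replicate at 50% or more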;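 further: 0 = median of the neutral control wells; tested in H4 reporter cells; numbers are from one replicate; inactives centre near -14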
Mtb hypoxia inh growth – further read-out of Mtb hypoxia inh, marked with its call; growth inhibition, %; measured here: M. tuberculosis growth (absorbance);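 0% = vehicle and 100% = reference antibiotic; read after six days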
Numbers without * were called inactive; ? = inconclusive; · = not tested or not shown.

SMILES	Autofluor counter	Mtb hypoxia inh	Mtb hypoxia inh growth	Sa RN4220 lethal	ugtP null kill	BJeLR viability	PrP UTR inh
O=C(NCC(c1ccco1)N1CCN(c2ccccc2F)CC1)C1CCCCC1 (stereo not given)	6000	15	5	0.6	7	2	-6
O=c1[nH]c(/C=C/c2ccccc2[N+](=O)[O-])nc2ccccc12	10212	·	·	·	·	-3	-39
O=C(Cn1cc(C(=O)c2ccco2)c2ccccc21)NC1CCCC1	13703	-1	13	9.1	7	-1	-28
CCC(C)N(C(=O)CSc1nnc(-c2cccs2)n1C1CC1)C1CCS(=O)(=O)C1 (stereo not given)	6779	8	-3	3.0	3	·	-29
COC(=O)c1c(F)c(F)c(NCCO)c(F)c1F	5679	12	10	6.9	3	-8	-19
Cc1nc(-c2ccccn2)sc1C(=O)Nc1ccc(Cl)c(Cl)c1	4247	1	2	-11	-18	0	-40
CCCCS(=O)(=O)c1sc2nc(C)cc(C)c2c1N	8069	4	9	3.8	2	-6	-21
CCN(CC)CC(=O)N1CCCC(C(=O)c2ccccc2OC)C1 (stereo not given)	2571	6	2	2.7	8	-8	-33
O=C1NC(=Nc2ccc(F)cc2)SC1Cc1ccc(F)cc1 (stereo not given)	6056	16	6	6.2	-5	0	·
COc1ccc(OC)c(Cc2nnc(CCC(=O)N3CCCCC3)o2)c1	5253	4	1	8.4	5	10	-28
CCN(c1ccccc1)c1nc(C#N)nc(N(CC)c2ccccc2)n1	5625	12	11	-16	34	5	-14
CN=c1scc(C)n1/N=C/c1ccc2c(c1)OCO2	2217	·	·	·	·	-7	45
CC1(c2nnc(-c3ccccc3)o2)CC(c2cccc(Cl)c2)=NO1 (stereo not given)	3673	17	22	11	-5	10	-9
O=[N+]([O-])c1ccccc1CNC1CCCCCC1	3222	-2	-2	-2.8	-1	11	-11
CCOc1cc(/C=N/N=C(N)N)ccc1OCc1ccc(Cl)cc1	9988	·	·	·	·	15	-19
CC1Cc2cc(/C(O)=C3/C(=O)C(=O)N(Cc4ccco4)C3c3cccs3)ccc2O1 (stereo not given)	2875	16	8	-5.2	2	2	-38
CC(=NNC(=O)CNC(=O)c1ccccn1)c1ccccc1	·	-8	-6	-1.1	2	·	·
CCN(Cc1ccccc1)C(=O)CCS(=O)(=O)c1ccc2c(c1)NC(=O)CO2	5346	7	2	3.3	2	-4	-7
COc1cc2c(C(=O)O)c(C)n(C)c2cc1Br	4530	-8	-9	11	-2	3	-13
CCOC(=O)CSc1nc2ccccc2c(=O)n1CC(C)C	4291	3	6	5.5	-3	0	-24
O=P(O)(CCc1ccccn1)CN1CCOCC1	5933	-4	-5	2.9	6	-2	-4
CC1CC(=O)Nc2ccccc2N1S(=O)(=O)c1ccc(Br)cc1 (stereo not given)	3821	11	13	3.7	-1	-6	-8
Cc1c(/C=N/NC(=O)c2cccs2)c2ccccc2n1Cc1ccccc1Cl	4463	·	·	·	·	-4	10
CC(C)CNc1nc(N)c([N+](=O)[O-])c(NC2CCCCC2)n1	3517	-2	5	0.2	8	-4	-15
O=C(NCCCN1CCOCC1)c1sc2cc([N+](=O)[O-])ccc2c1Cl	3103	1	5	1.6	-3	17	-23
N=C1/C(=C\c2coc3ccccc3c2=O)C(=O)N=C2SC(c3ccncc3)=NN12	3584	-10	6	43	23	-8	-14
O=C(O)COc1ccccc1/C=N/NC(=O)CSc1nnc(-c2ccc(Cl)cc2)n1C1CCCCC1	5043	·	·	·	·	-8	-8
CCCc1nn2c(=O)cc(CSCC(=O)Nc3ccccc3OC)nc2s1	5552	1	10	1.5	-4	-6	-19
C=CCOc1ccc(CC2C(=O)N(C)C(=O)N(C)C2=O)cc1	8987	-3	4	2.6	3	0	-14
CCc1cc(=O)oc2c(C)c(OCC(=O)NCCCN3CCOCC3)ccc12	4552	2	6	6.3	14	2	-8
CC1CCCC(C)N1C(=O)COC(=O)c1ccc(O)cc1 (stereo not given)	?	·	·	5.5	3	-4	-9
Cc1ccnc(NC(=O)C2CCN(S(=O)(=O)c3ccc4ccccc4c3)CC2)c1	6577	2	7	-0.4	5	11	-27
O=C(OCc1cc2ccccc2[nH]c1=O)c1cccs1	2382	-10	-9	7.4	-10	3	1
CCC(=O)NN=Cc1ccc(OS(=O)(=O)c2ccccc2)cc1	·	8	6	2.8	0	·	·
O=S(=O)(Nc1nc2ccccc2nc1N1CCN(c2ccccc2F)CC1)c1ccc(Cl)cc1	10021	11	17	-0.6	-3	1	-26
O=C(NN1C(=O)C2CCCCC2C1=O)c1ccco1 (stereo not given)	3670	5	-4	0.5	0	-13	-22
Cc1nc2ccc(S(=O)(=O)NCC(=O)NC(C)c3ccccc3)cc2s1 (stereo not given)	4590	0	7	0.7	6	-4	-30
CC(=O)c1cccc(NC(=O)N2CCCC2C(=O)Nc2cccc(C)c2)c1 (stereo not given)	4566	-3	8	0.2	3	-5	-14
O=C(NCCN1CCCCC1)c1ccc(Cl)nc1Cl	2926	-1	5	0.9	2	6	-19
Cc1nn(-c2ccccc2)c(C)c1C=NNC(=O)c1cccs1	·	16	4	5.5	2	·	·
S=C(NCc1ccco1)N1CCN(c2ccc(Cl)cc2)CC1	2600	4	12	5.3	-6	-7	-11
O=C(CN1C(=O)c2ccccc2C1=O)OCC(=O)c1ccc(F)cc1	?	3	0	1.7	3	-8	-5
O=C(Nc1cccnc1)C12CC3CC(CC(C3)C1)C2	4164	0	4	-1.9	3	11	1
NNC(=O)COc1ccccc1F	2060	-11	1	4.9	9	7	-34
Cc1ccccc1NC(=O)Cc1nc(COC(=O)c2cc(Cl)ccc2O)cs1	5258	9	16	4.3	2	4	-15

As a short view, 14 of the compounds above.
SMILES	Autofluor counter	Mtb hypoxia inh	Mtb hypoxia inh growth	Sa RN4220 lethal	ugtP null kill	BJeLR viability	PrP UTR inh
Cc1ccnc(NC(=O)C2CCN(S(=O)(=O)c3ccc4ccccc4c3)CC2)c1	6577	2	7	-0.4	5	11	-27
O=C(OCc1cc2ccccc2[nH]c1=O)c1cccs1	2382	-10	-9	7.4	-10	3	1
CCC(=O)NN=Cc1ccc(OS(=O)(=O)c2ccccc2)cc1	·	8	6	2.8	0	·	·
O=S(=O)(Nc1nc2ccccc2nc1N1CCN(c2ccccc2F)CC1)c1ccc(Cl)cc1	10021	11	17	-0.6	-3	1	-26
O=C(NN1C(=O)C2CCCCC2C1=O)c1ccco1 (stereo not given)	3670	5	-4	0.5	0	-13	-22
Cc1nc2ccc(S(=O)(=O)NCC(=O)NC(C)c3ccccc3)cc2s1 (stereo not given)	4590	0	7	0.7	6	-4	-30
CC(=O)c1cccc(NC(=O)N2CCCC2C(=O)Nc2cccc(C)c2)c1 (stereo not given)	4566	-3	8	0.2	3	-5	-14
O=C(NCCN1CCCCC1)c1ccc(Cl)nc1Cl	2926	-1	5	0.9	2	6	-19
Cc1nn(-c2ccccc2)c(C)c1C=NNC(=O)c1cccs1	·	16	4	5.5	2	·	·
S=C(NCc1ccco1)N1CCN(c2ccc(Cl)cc2)CC1	2600	4	12	5.3	-6	-7	-11
O=C(CN1C(=O)c2ccccc2C1=O)OCC(=O)c1ccc(F)cc1	?	3	0	1.7	3	-8	-5
O=C(Nc1cccnc1)C12CC3CC(CC(C3)C1)C2	4164	0	4	-1.9	3	11	1
NNC(=O)COc1ccccc1F	2060	-11	1	4.9	9	7	-34
Cc1ccccc1NC(=O)Cc1nc(COC(=O)c2cc(Cl)ccc2O)cs1	5258	9	16	4.3	2	4	-15

The list continues:
SMILES	Autofluor counter	Mtb hypoxia inh	Mtb hypoxia inh growth	Sa RN4220 lethal	ugtP null kill	BJeLR viability	PrP UTR inh
CC(Sc1ncccn1)C(=O)NC1CCCC1 (stereo not given)	3994	7	6	0.7	4	·	-29
O=C(COc1coc(CN2CCN(c3ccccc3F)CC2)cc1=O)N1CCc2ccccc21	4331	7	2	5.4	6	-8	-5
S=C(Nc1ccc(Cl)cc1Cl)Nc1ccccc1Oc1ccccc1	2954	·	·	·	·	-11	8
O=c1c2cc(N3CCOCC3)ccc2[nH]c(=S)n1CC1CCCO1 (stereo not given)	22212*	3	4	2.4	-2	-17	-23
CCC12CN3CCN(CC(C3)/C1=N\NC(=O)c1ccc(F)cc1)C2	4594	·	·	·	·	-4	-18
CC(=O)O[C@H]1CSC[C@H]1NC(=O)c1ccccc1	3234	6	11	-3.2	-6	0	-9
CC(=O)Nc1nc2ccccc2n1Cc1ccccc1C	4298	·	·	1.7	7	0	-16
Cc1c(C(=O)N2CCCCC2)nnn1-c1nonc1N	3110	14	10	11	1	-11	-17
COc1cc2c(ccc3cc(OC)c(OC)c(O)c32)cc1O	5659	·	·	1.8	-9	3	-22
CCOC(=O)C1=C(c2ccccc2)NC(=O)NC1c1ccsc1 (stereo not given)	3923	-2	4	5.3	4	4	-19
Cc1ccc(OCC(=O)Nc2ccc3c(c2)nc(CCN2CCC(C)CC2)n3C)cc1	4175	1	8	-1.5	-3	4	-1
CC1(C(=O)NC2CCCCCCC2)CCC(=O)N1Cc1cccs1 (stereo not given)	16346*	8	4	0.3	9	-13	-20
Cc1ccc(S(=O)(=O)Nc2cccc(C(=O)NCc3ccc(S(N)(=O)=O)cc3)c2)cc1	3961	5	1	1.6	5	-12	-10
CN(C)c1ccc(/C=C/C(=O)c2c(O)c3ccccc3oc2=O)cc1	9491	2	-5	6.4	-7	5	-27
COc1c(Br)cc(Br)cc1C=NNC(=O)c1cccnc1	·	·	·	-3.5	23	·	·

Compound profiles (already shown).
CC(=O)O[C@H]1CSC[C@H]1NC(=O)c1ccccc1 is listed with Autofluor counter = 3234; Mtb hypoxia inh = 6; Mtb hypoxia inh growth = 11; Sa RN4220 lethal = -3.2; ugtP null kill = -6; BJeLR viability = 0; PrP UTR inh = -9
COc1c(Br)cc(Br)cc1C=NNC(=O)c1cccnc1 is listed with Autofluor counter = ·; Mtb hypoxia inh = ·; Mtb hypoxia inh growth = ·; Sa RN4220 lethal = -3.5; ugtP null kill = 23; BJeLR viability = ·; PrP UTR inh = ·

Going on with the list:
SMILES	Autofluor counter	Mtb hypoxia inh	Mtb hypoxia inh growth	Sa RN4220 lethal	ugtP null kill	BJeLR viability	PrP UTR inh
Cc1ccc2[nH]c(C(=O)NN=Cc3ccccc3C(=O)O)c(-c3ccccc3)c2c1	·	-1	-2	22	-10	·	·
CC(=O)c1ccc(OCCCC(=O)Nc2ccc(C)c(S(=O)(=O)N3CCCCC3)c2)cc1	·	0	13	4.0	0	·	-14
O=C(O)c1cccnc1SC1CC(=O)N(c2ccc(OC(F)F)cc2)C1=O (stereo not given)	4352	-1	-6	-3.2	-5	-19	-29
CC(C)c1nnc(NC(=O)CN(C)S(=O)(=O)c2ccc3c(c2)OCCO3)s1	2460	6	12	2.3	8	1	-9
CCCCc1c(O)nc(SCC(=O)NC(C)(C)C)n(-c2ccccc2C)c1=O	3534	·	·	6.2	17	2	-9
COc1cccc(C(=O)Nc2ccccc2OC(F)(F)F)c1	4258	0	-2	7.4	1	7	15
CC(=O)c1ccc(NC(=O)NCc2ccc(F)cc2)cc1	4037	13	10	2.8	3	2	-11

Assay outcomes (PubChem)
